H5N1 CPE: MDCK cell protection from H5N1 avian flu; hit rate 0.07% among 96,000; cytopathic effect, luminescence, 72 h; active compounds read high; no value below 0 was filed and about half of the inactive calls have no number; reference of the scale not given here; inhibition, % at 50 µM; in the data active = inhibition above about 25%
Starred values were filed as active, the others as inactive; i = inactive. These rows are one share of the data. The share of hits here may be higher or lower than overall.

SMILES	H5N1 CPE
Cc1cccc(NC2=NC3(CCCCC3)N=C(N)N2)c1C	i
O=C(NC12CC3CC(CC(C3)C1)C2)C12CC3CC(C1)CC(n1cnc(Cl)n1)(C3)C2	i
CSc1ccccc1C(=O)NC1CCCC1	i
Cc1nc2ccc(C(C(F)(F)F)(C(F)(F)F)C(F)(F)F)cc2[nH]1	1.4
Cc1cccc(OCc2nnc(SCC(=O)c3cccs3)n2C)c1C	i
O=C(C1CCCCC1)N(CCN1CCCC1)c1nc2ccccc2s1	i
CCOC(=O)N1CCN(Cc2nc3c(c(=O)n(C)c(=O)n3C)n2Cc2ccc(F)cc2)CC1	0.5
CCOC(=O)/C=c1\s/c(=C\c2ccc3c(c2)OCCO3)c(=O)n1CC(=O)NCC1CCCO1 (stereo unspecified)	0.9
Cc1cc(Nc2cc(C)on2)n2ncnc2n1	0.6
CCCCCCn1cnc2c(c1=O)c1nc3ccccc3nc1n2/N=C/c1ccco1	1.0
O=C(CSc1nc2ccccc2c(=O)n1-c1cccc(C(F)(F)F)c1)NC1CC1	0.2
c1ccc(OCCSc2nnc3sc4ccccc4n23)cc1	7.6
O=C1CCC(=O)N1c1nc2nc(-c3ccccc3)cc(-c3ccccc3)n2n1	0.9
O=C(CN(C(=O)Cn1nnc(-c2cccs2)n1)c1cnc2ccccc2c1)NCC1CCCO1 (stereo unspecified)	i
Cn1c(N2CCOCC2)nc2c1c(=O)n(Cc1ccc(Cl)c(Cl)c1)c(=O)n2C	i
O=C1CSC(=NC(=O)c2ccccc2)N1	0.9
O=C(CSCc1ccc([N+](=O)[O-])cc1)NCCSCc1ccccc1	i
CC(=O)c1cccc(N(CC(=O)O)S(C)(=O)=O)c1	i
CCCNC(=S)Nc1ccc2nc(-c3ccccn3)c(-c3ccccn3)nc2c1	0.8
O=C(NCc1ccc2c(c1)OCO2)C1CCN(S(=O)(=O)c2ccc(Br)s2)CC1	i
CC(CCc1ccccc1)C(=O)NO (stereo unspecified)	0.5
CC(C)(C)OC(=O)C1C(=O)CC(C)(O)C(C(=O)OC(C)(C)C)C1c1cccnc1 (stereo unspecified)	0.8
CC1(C)CC(=O)C(C=NCCCO)=C(O)C1	0.3
O=C(NC1CCCC1)C(c1cccs1)N(C(=O)c1ccno1)c1ccccc1 (stereo unspecified)	0.8
Cc1cccc(-c2nsc(SCC(=O)Nc3nccs3)n2)c1	i
SMILES	H5N1 CPE
COC(=O)Nc1ccc(S(=O)(=O)Nc2cccc3ccccc23)cc1	1.4
O=C(O)c1cnc(-c2ccccc2)nc1Sc1ccc(Cl)cc1Cl	i
N/C(=N\OC(=O)C(c1ccccc1)c1ccccc1)c1cccnc1	0.9
Cc1ccc(N(C(C)C(=O)O)S(=O)(=O)c2cccnc2)cc1 (stereo unspecified)	i
CN(C1=C(N2CCCCC2)C(=O)c2ccccc2C1=O)c1ccccc1	i
CC1(C)CC(=O)C(C=Nc2cccc(/N=C/C3=C(O)CC(C)(C)CC3=O)n2)=C(O)C1	i
COc1ccc(OC)c(N=c2oc3cc(O)ccc3cc2C(N)=O)c1	1.3
Cc1cccc2sc(NC(=O)C3c4ccccc4Oc4ccccc43)nc12	i
COc1ccc(C2CC(c3c(Cl)cccc3Cl)n3nc(N)nc3N2)cc1 (stereo unspecified)	1.6
CCC(C)(C)NC(=O)C(c1cccn1C)N(Cc1ccc(C)cc1)C(=O)Cn1nnc2ccccc21 (stereo unspecified)	i
N#Cc1c(NC(=O)CSc2ncc(-c3ccccc3)n2CC2CCCO2)sc2c1CCCC2 (stereo unspecified)	i
COc1ccc(NC(=O)Cn2c(-c3ccc(OC)cc3)cn(-c3ccc(C)cc3)c2=O)cc1	i
CCn1cnc2scc(-c3ccccc3)c2c1=O	0.5
COc1ccc(/C(O)=C2/C(=O)C(=O)N(CC3CCCO3)C2c2cccc(O)c2)cc1 (stereo unspecified)	i
COc1ccc(CNC(=O)C2CCN(C(=O)N3CCOc4ccc(C)cc43)CC2)cc1	i
CC(C)OC(=O)CCNc1n[nH]c(=O)[nH]c1=O	i
CCCCOC(=O)CNc1n[nH]c(=S)[nH]c1=O	i
Cc1cc(C)c2cc(CN(Cc3nnnn3Cc3ccc(F)cc3)C3CCCC3)c(=O)[nH]c2c1	1.2
CCOC(=O)N1CCC(NC(=O)c2ccc(CNS(=O)(=O)c3ccc(F)cc3)cc2)CC1	0.6
Cc1c(C(O)CN2CCC(C(N)=O)CC2)c2ccccc2n1C (stereo unspecified)	0.4
CCOC(=O)CC(=O)CSc1nc2c(c(C)c1C#N)CCC2	i
CCOC(=O)C1CCN(C(=O)C2(NC(=O)Nc3ccccc3Cl)CCCCC2)CC1	i
CCCN(Cc1ccc(N(C)C)cc1)CC1CC1	2.3
CC(=O)c1[nH]c(C)c(C(C)=O)c1C	i
COc1ccc(-n2c3c(c(=O)[nH]c2=O)C(C(F)(F)F)(C(F)(F)F)N=C(CC(C)C)N3)cc1	i
SMILES	H5N1 CPE
Cc1ccc(-c2nnc(-c3cccc(NC(=O)c4cccs4)c3)o2)cc1	0.1
CC(C)(C)c1cc(C(=O)O)nn1-c1ccccc1	i
O=C(O)c1cccc(NS(=O)(=O)c2cccc3cccnc23)c1	0.7
COc1cc(S(=O)(=O)NCc2cccnc2)c(OC)cc1Br	1.0
CCOC(=O)C(CSCC(=O)c1ccc(Cl)cc1Cl)NC(=O)OC(C)(C)C (stereo unspecified)	i
CCc1nc(SCC(=O)O)c(C#N)cc1C	i
Cc1n[nH]c(C)c1S(=O)(=O)N1CCCC(C(=O)Nc2ccc3c(c2)OCCO3)C1 (stereo unspecified)	0.5
Cc1ccc2ncccc2c1NS(=O)(=O)c1ccccc1	i
Cc1ccccc1C(=O)Nc1ccc2c(c1)OCO2	i
COc1ccc(-c2cc(C3CCN(c4ncccc4[N+](=O)[O-])CC3)[nH]n2)cc1	i
CC(C)Oc1ccc(NC(=O)c2ccncc2)cc1	0.2
Cc1nn(-c2ccccc2)c2nc(-c3ccco3)cc(C(=O)O)c12	4.7
CCCCNC(=O)c1ccc(NS(=O)(=O)c2ccccc2)cc1	0.2
CN(C)c1ccc(-c2nc3ccccc3n2C)cc1	i
Cc1ccc(S(=O)(=O)/N=c2\sccn2C)cc1	0.0
Nc1nnc(CCS(=O)(=O)c2ccc(Cl)cc2)s1	i
Cc1ccc(-n2cccc2/C=N/n2cnnc2)cc1Cl	i
Cc1ccc(NC(=O)CSc2nccn2Cc2ccccc2)cc1C	i
CCCCCn1c(SCC(=O)OCC)nc2cc(C(=O)NCc3ccco3)ccc2c1=O	1.0
COc1cc(/C=N/Nc2snc(SC)c2C#N)cc(OC)c1OC	i
Cc1cccc(N2CCN(C3=NC(=O)C(=C4CCCCC4)S3)CC2)c1	i
Cc1noc(C)c1C(=O)Nc1sc2c(c1C(N)=O)CCCCC2	i
O=C(NCc1ccccn1)Nc1ccc(F)cc1	0.2
O=C(c1cccs1)N1CCOCC1	i
CCOC(=O)Cn1nc(-c2ccccc2)nc1-c1ccccc1	0.7

The last 4 compounds of the part above open the next one.
SMILES	H5N1 CPE
Cc1noc(C)c1C(=O)Nc1sc2c(c1C(N)=O)CCCCC2	i
O=C(NCc1ccccn1)Nc1ccc(F)cc1	0.2
O=C(c1cccs1)N1CCOCC1	i
CCOC(=O)Cn1nc(-c2ccccc2)nc1-c1ccccc1	0.7
Cc1c(Cl)cnc(NC(=O)COC(=O)CCS(=O)(=O)c2ccccc2)c1Cl	1.1
COc1ccccc1C1=Nc2cccc3cccc(c23)N1	1.2
Cc1cccc2cc(CN(Cc3ccco3)C(=O)c3ccncc3)c(=O)[nH]c12	i
Cc1cc(OCn2ccc(C(=O)O)n2)ccc1Cl	0.1
O=C(COc1ccc2ccccc2c1)Nc1ccc(Cc2ccncc2)cc1	1.1
COC(=O)c1ccc(NC(=O)COC(=O)CSc2nc(C)cc(C)n2)cc1	0.2
Cc1sc2ncnc(SCC(=O)NCC(C)C)c2c1C	i
COC(=O)c1ccccc1NC(=O)CN1C(=O)c2ccccc2S1(=O)=O	1.5
CC(C)(C)c1ccccc1OCCCCCNCCO	i
Cc1ccc(S(=O)(=O)N2CCOCC2)cc1C(=O)Nc1nc(-c2cccnc2)cs1	0.6
CC(C)N=C(NC#N)SCc1ccc(F)cc1	1.6
CCOc1ccc(N2CC(C(=O)Nc3ccccc3OC)CC2=O)cc1 (stereo unspecified)	i
CCOc1ccc(N=c2scc(-c3ccccc3)n2CCO)cc1	i
CCCOC1CCCN(C(=O)c2cc(Cl)c(Cl)cc2C(=O)O)C1 (stereo unspecified)	0.5
COc1cccc(CNC(=O)CN(c2cc(C)cc(C)c2)S(=O)(=O)c2c(C)noc2C)c1	0.2
CCCOc1ccc(CC(=O)NCC2(c3ccccc3)CCOCC2)cc1OC	2.3
C/C(=N\NC(=O)c1ccc(OC2CCCC2)cc1)c1ccc(C)s1	i
Cc1cccc(C)c1NC(=O)c1ccc(-c2ccc(Cl)cc2Cl)o1	1.2
COc1ccc(COC(=O)N/N=C(\C)CC(=O)Nc2c(C)cc(C)cc2C)cc1	i
CCN(C(=O)CSc1nnc(-c2ccccc2Cl)n1C1CCCC1)C1CCS(=O)(=O)C1 (stereo unspecified)	0.2
Cc1cccc(C)c1OCC(O)CNC(C)C (stereo unspecified)	1.3
CCNc1nc(NCC)nc(-n2nc(C)cc2C)n1	i
OCCN(Cc1ccccc1)CC1CCCCC1	i
CSc1nc2nc(-c3ccccc3)cc(C(F)(F)F)n2n1	i
Cc1ccccc1/C(N)=N/OC(=O)/C=C/c1ccccc1	0.5
SMILES	H5N1 CPE
CCc1nn(C(C)C(=O)N2CCN(Cc3ccccc3)CC2)c(=O)c2cc3occc3n12 (stereo unspecified)	3.4
O=c1c2ccccc2nc2n1CCN2Cc1ccc(Cl)cc1	2.1
O=C(NCc1cccnc1)Nc1cccc(NC(=O)NCc2cccnc2)c1	i
N#Cc1nc(-c2ccccc2F)oc1NCCc1ccccn1	0.1
COC(=O)CSc1nc2sc3c(c2c(=O)n1C1CCCCC1)CCN(C)C3	3.4
Nc1cccc2c1C(=O)N(C(=O)c1cccc(S(=O)(=O)N3CCCCCC3)c1)C2=O	0.7
CCOc1ccc2nc(C)cc(C(=O)O)c2c1	i
CNc1cc(CSC)nc(SCc2ccc(Cl)c(Cl)c2)n1	i
COCCCNC(=O)COc1ccc(Cl)c(C)c1	i
Cc1ccc(-c2nc(N)n(C(=O)c3cccnc3)n2)cc1	2.3
COc1ccc2c(c1)CCc1c(C(=O)Nc3c(C)n(C)n(-c4ccccc4)c3=O)noc1-2	i
C=CCn1c(SCC(=O)Nc2ccc(C(=O)OCC)cc2)nnc1-c1sc(N)nc1C	i
COCc1cc(=O)n2c(-c3ccccc3OC)n[nH]c2n1	i
CC(NS(C)(=O)=O)C(c1cccs1)N1CCN(Cc2ccccc2)CC1 (stereo unspecified)	1.1
COC(=O)Cc1nnc(NC(=O)C(C)C)s1	i
O=C(CN1CCOCC1)N/N=C/c1cc2ccccc2nc1Cl	i
CCOc1ccc(C(=O)COC(C)=O)cc1	i
O=C(Nc1nc2ccc(Cl)cc2s1)c1ccco1	i
O=C(c1ccco1)N1CCN=C1SCc1cccnc1	0.7
CCC(=O)Nc1cc2c(cc1C(C)=O)OCCO2	i
COc1ccc(CNc2ccccc2SC)cc1OC	i
CCCOc1ccc(C2c3c(oc4cc(C)c(C)cc4c3=O)C(=O)N2CCCN(C)C)cc1 (stereo unspecified)	i
CC(C)C[C@H](NS(=O)(=O)c1ccc(Br)cc1)C(=O)O	0.4
CSc1nnnn1-c1ccc(C(=O)OCC(=O)N2CCOCC2)cc1	i
COc1ccc(CCNC(=O)Cn2cnc3c(cnn3C(C)(C)C)c2=O)cc1OC	0.3
SMILES	H5N1 CPE
O=c1c2c(nc3nc(CCc4ccccc4)[nH]n13)CCC2	i
O=C(/C=C/c1ccco1)Nc1ccc(Oc2ccccc2)cc1	i
C=CCn1c(N)c(S(=O)(=O)c2cccs2)c2nc3ccccc3nc21	1.2
CCc1noc2c1/C(=N\O)CC(c1ccccc1)C2 (stereo unspecified)	i
COc1ccc(C=NC(CO)C(O)c2ccc([N+](=O)[O-])cc2)cc1 (stereo unspecified)	i
COc1cccc(-n2nnnc2SCC(=O)NCCc2ccccc2)c1	i
CCc1c(C#N)c(SCCC(=O)Nc2cccc(OC)c2)nc2c1C(=O)CC(C)(C)C2	0.6
Cc1cccc(NC(=S)N/N=C/c2ccc([N+](=O)[O-])s2)c1	i
COc1ccc(-c2cn(-c3ccc(C)cc3)c(=O)n2CC(=O)Nc2cccc(F)c2)cc1	i
O=C(C1CCCCC1)N1CCCC(c2nc(-c3ccc(F)cc3)no2)C1 (stereo unspecified)	0.1
CN(CC(=O)NCc1ccc(F)cc1)S(=O)(=O)c1cccc2nsnc12	i
Cc1ccc(S(=O)(=O)NCc2ccco2)c(C)c1C	0.1
Cc1ccc(-n2cc(C(=O)c3ccccc3O)cn2)cc1	i
CC(=O)c1c(O)cc(C)n(Nc2nc(C)cc(C)n2)c1=O	i
NC(=O)C1CCN(C(=O)c2cnn(-c3ccccc3)c2NC(=O)c2ccco2)CC1	i
COCCn1c(SCC(=O)NCC2CCCO2)nc2c(c1=O)SC(C)C2 (stereo unspecified)	1.2

Gathered by group, those above containing a thiophene ring, fused or not.
SMILES	H5N1 CPE
Cc1cccc(OCc2nnc(SCC(=O)c3cccs3)n2C)c1C	i
O=C(CN(C(=O)Cn1nnc(-c2cccs2)n1)c1cnc2ccccc2c1)NCC1CCCO1 (stereo unspecified)	i
O=C(NCc1ccc2c(c1)OCO2)C1CCN(S(=O)(=O)c2ccc(Br)s2)CC1	i
O=C(NC1CCCC1)C(c1cccs1)N(C(=O)c1ccno1)c1ccccc1 (stereo unspecified)	0.8
N#Cc1c(NC(=O)CSc2ncc(-c3ccccc3)n2CC2CCCO2)sc2c1CCCC2 (stereo unspecified)	i
CCn1cnc2scc(-c3ccccc3)c2c1=O	0.5
Cc1ccc(-c2nnc(-c3cccc(NC(=O)c4cccs4)c3)o2)cc1	0.1
Cc1noc(C)c1C(=O)Nc1sc2c(c1C(N)=O)CCCCC2	i
O=C(c1cccs1)N1CCOCC1	i
Cc1sc2ncnc(SCC(=O)NCC(C)C)c2c1C	i
C/C(=N\NC(=O)c1ccc(OC2CCCC2)cc1)c1ccc(C)s1	i
COC(=O)CSc1nc2sc3c(c2c(=O)n1C1CCCCC1)CCN(C)C3	3.4
CC(NS(C)(=O)=O)C(c1cccs1)N1CCN(Cc2ccccc2)CC1 (stereo unspecified)	1.1
C=CCn1c(N)c(S(=O)(=O)c2cccs2)c2nc3ccccc3nc21	1.2
Cc1cccc(NC(=S)N/N=C/c2ccc([N+](=O)[O-])s2)c1	i
